Vaccinia stage = blocks a specific stage of Vaccinia orthopoxvirus infection, primary screen, cell-based, single point. Vaccinia-infected cells, mCherry/Venus stage reporter fluorescence; stronger effect = lower value; some inactives read as strong as hits. activity change (mCherry), % (test concentration not listed). actives 0.01% (n = 89,000). AID 1053133, 2014;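 active = mCherry past -33% and 40 or more points under the early reporter, replicates agreeing; inconclusive = past -33% without that gap or agreement; tested in A549 cells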;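 also: scaled between vehicle wells and reference inhibitor wells; 23 nL library stock went into each well; one replicate is shown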
Vaccinia stage Venus = also measured in Vaccinia stage; calls as there; activity change (Venus), %; measured here: Venus reporter, other viral stage;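 negative = less Venus signal; first of two replicates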
Starred values were filed as active, the others as inactive; ? = inconclusive; . = no result given; & = joins results of further samples. Not all compounds are listed; rates above refer to the full screens.

| mol | Vaccinia stage Venus | Vaccinia stage |
| --- | --- | --- |
| O=C(NC[C@H]1CC[C@H]2[C@H](CN2Cc2cccc(Cl)c2)O1)C1CCC1 | 0 | -3 |
| COCC(=O)N(C)C[C@H]1Oc2ncc(-c3ccccc3OC)cc2C(=O)N([C@H](C)CO)C[C@H]1C | 8 | 12 |
| Cc1ccc(S(=O)(=O)N(C)C[C@@H]2Oc3ccc(NS(=O)(=O)c4c(C)noc4C)cc3C(=O)N([C@H](C)CO)C[C@H]2C)cc1 | 15 | 18 |
| C[C@@H]1CN([C@H](C)CO)C(=O)c2c(c3ccccc3n2C)-c2ccccc2CO[C@@H]1CN(C)C(=O)c1ccncc1 | -5 | 16 |
| CN(C)CC(=O)N1CC2(C1)[C@@H](c1ccccc1)[C@@H](CO)N2C(=O)C1CC1 | 9 | -7 |
| O=C(C[C@@H]1C[C@H]2c3cc(NS(=O)(=O)c4ccc(F)cc4)ccc3O[C@H]2[C@H](CO)O1)N1CCc2ccccc2C1 | -5 | -22 |
| O=C(c1ccccc1)N1[C@H](CO)[C@H](c2ccccc2)C12CN(CCC(F)(F)F)C2 | -1 | -4 |
| CC(C)C#Cc1ccc2c(c1)O[C@@H](CN(C)Cc1ccccc1)[C@@H](C)CN([C@H](C)CO)S2(=O)=O | -10 | -15 |
| CCCNC(=O)N1C[C@H](O)COC[C@@H]2O[C@@H](CC(=O)OC)CC[C@H]21 | 4 | 15 |
| O=C(C[C@H]1C=C[C@H](NC(=O)C2CC2)[C@H](CO)O1)Nc1ccccc1 | 8 | 4 |
| Cc1noc(C)c1S(=O)(=O)Nc1ccc2c(c1)C(=O)N([C@H](C)CO)C[C@@H](C)[C@@H](CN(C)C(=O)NC1CCCCC1)O2 | -1 | 3 |
| COc1ccc(-c2ccc([C@H]3[C@@H](CO)N4C(=O)CN(C(=O)c5cccnc5)C[C@@H]34)cc2)cc1 | 3 | 7 |
| C[C@@H]1CN([C@@H](C)CO)C(=O)c2cc(NC(=O)CCC(F)(F)F)ccc2O[C@H]1CN(C)C(=O)Nc1ccc(F)cc1 | 16 | 11 |
| CCCNC(=O)N(C)C[C@H]1Oc2cc(C#CC(C)C)ccc2S(=O)(=O)N([C@H](C)CO)C[C@H]1C | 4 | 10 |
| COc1ccc(COCC23Oc4ccccc4[C@H]([C@H]2CO)n2c(c4c(c(C(C)=O)c2=O)C(=O)N(C)C4=O)N3C)cc1 | -15 | -15 |
| COc1cccc(NC(=O)C[C@H]2CC[C@H]3[C@@H](COc4ccc(NC(=O)C5CCCC5)cc4C(=O)N3C)O2)c1 | -5 | 11 |
| C[C@H]1CN([C@@H](C)CO)C(=O)c2cccc(NS(=O)(=O)c3ccccc3)c2O[C@H]1CN(C)S(=O)(=O)c1cn(C)cn1 | 2 | -4 |
| COC(=O)C[C@H]1CC[C@H]2[C@@H](COc3ccc(NC(=O)c4ccccc4F)cc3C(=O)N2C)O1 | 4 | 3 |
| CO[C@@H]1CN(C)C(=O)c2ccc(NC(=O)C3CC3)cc2OC[C@H](C)N(C(=O)C2CCOCC2)C[C@@H]1C | 17 | 21 |
| C[C@H](CO)N1C[C@H](C)[C@@H](CN(C)S(=O)(=O)c2ccc3c(c2)OCCCO3)OCc2cnnn2CCCC1=O | 18 | 11 |

Copied from the list.
CCCNC(=O)N(C)C[C@H]1Oc2cc(C#CC(C)C)ccc2S(=O)(=O)N([C@H](C)CO)C[C@H]1C – Vaccinia stage Venus: 4
C[C@@H]1CN([C@@H](C)CO)C(=O)c2cc(NC(=O)CCC(F)(F)F)ccc2O[C@H]1CN(C)C(=O)Nc1ccc(F)cc1 – Vaccinia stage Venus: 16

(list continues)
| mol | Vaccinia stage Venus | Vaccinia stage |
| --- | --- | --- |
| CN(C)C(=O)c1cc2c(c(-c3cccc(-c4ccc(F)cc4)c3)n1)[C@H](CCO)N([S@@](=O)C(C)(C)C)C2 | 19 | -5 |
| CO[C@@H]1CN(C)C(=O)c2ccc(NC(=O)C3CC3)cc2OC[C@H](C)N(CC2CCCC2)C[C@@H]1C | 9 | 0 |
| C[C@H](NC(=O)C[C@@H]1C[C@@H]2c3cc(NC(=O)CC4CC4)ccc3O[C@@H]2[C@H](CO)O1)c1ccccc1 | 5 | -2 |
| COc1ccc2c3c(n(C)c2c1)[C@H](CO)N(C(=O)c1ccc(F)cc1)CC31CCN(C(=O)c2ccc(F)cc2)CC1 | . | ? |
| C[C@@H]1CCCCO[C@H](CN(C)C(=O)Cc2ccccc2)[C@H](C)CN([C@H](C)CO)C(=O)c2cc(NC(=O)Nc3ccccc3)ccc2O1 | -5 | -7 |
| C[C@H](NC(=O)C[C@H]1C[C@@H]2c3cc(NC(=O)NC4CCCCC4)ccc3O[C@@H]2[C@@H](CO)O1)c1ccccc1 | 4 | 2 |
| CO[C@@H]1CN(C)C(=O)c2cc(NC(=O)Nc3ccccc3F)ccc2OC[C@H](C)NC[C@H]1C | -5 | -6 |
| O=C(C1CCC1)N1CC(=O)N2[C@H](CO)[C@H](c3ccc(-c4cccnc4)cc3)[C@@H]2C1 | -1 | 4 |
| CS(=O)(=O)N1[C@@H]2Cn3c(ccc(C4=CCCCC4)c3=O)[C@H]1[C@@H](C(=O)N1CCCCC1)[C@@H]2CO | 1 | 17 |
| C[C@@H]1CN([C@H](C)CO)C(=O)Cc2cc(NS(=O)(=O)c3ccc(Cl)cc3)ccc2O[C@H]1CN(C)C(=O)NC1CCCCC1 | -1 | 2 |
| COc1ccc(NC(=O)Nc2ccc3c(c2)[C@H]2C[C@@H](CC(=O)NCc4ccncc4)O[C@@H](CO)[C@H]2O3)cc1 | -1 | 1 |
| COc1ccc(NC(=O)N(C)C[C@@H]2Oc3c(NC(=O)c4ccncc4)cccc3C(=O)N([C@@H](C)CO)C[C@H]2C)cc1 | 4 | -5 |
| C[C@@H]1CN([C@H](C)CO)C(=O)c2cc(C#C[C@@H](C)O)cnc2O[C@H]1CN(C)CC1CCCCC1 | 11 | 17 |
| CCCNC(=O)N(C)C[C@H]1Oc2cc(-c3ccncc3)ccc2S(=O)(=O)N([C@H](C)CO)C[C@@H]1C | 9 | 16 |
| CCNC(=O)C[C@H]1CC[C@H]2[C@@H](COc3ccc(NC(=O)Nc4cccc(C)c4)cc3C(=O)N2C)O1 | 5 | 5 |
| CO[C@H]1CN(C)C(=O)c2cc(NS(=O)(=O)c3ccc(-c4ccccc4)cc3)ccc2OC[C@H](C)NC[C@H]1C | . | ? |
| CC(C)CC#Cc1ccc2c(c1)O[C@@H](CN(C)C(=O)Cc1ccccc1)[C@H](C)CN([C@@H](C)CO)S2(=O)=O | . | ? |
| CNC[C@@H]1Oc2ccc(N(C)C)cc2CC(=O)N([C@@H](C)CO)C[C@@H]1C | 11 | 25 |
| O=C(C[C@H]1C=C[C@@H](NC(=O)c2ccc3c(c2)OCO3)[C@@H](CO)O1)NC1Cc2ccccc2C1 | 4 | 8 |
| CC=Cc1ccc2n(c1=O)C[C@@H]1[C@@H](CO)[C@H](C(=O)NCCC)[C@H]2N1C(=O)c1ccccc1F (mixture of isomers) | 9 | 5 |

An excerpt of these results, with values under each structure.
The line under a structure holds: Vaccinia stage Venus, Vaccinia stage
> CCNC(=O)C[C@H]1CC[C@H]2[C@@H](COc3ccc(NC(=O)Nc4cccc(C)c4)cc3C(=O)N2C)O1
    5, 5
> CO[C@H]1CN(C)C(=O)c2cc(NS(=O)(=O)c3ccc(-c4ccccc4)cc3)ccc2OC[C@H](C)NC[C@H]1C
    ., ?

(list continues)
| mol | Vaccinia stage Venus | Vaccinia stage |
| --- | --- | --- |
| C[C@@H]1CN([C@@H](C)CO)C(=O)c2cccc(NC(=O)CCCCCC(=O)Nc3ccccc3N)c2O[C@H]1CN(C)CC1CC1 | . | ? |
| C[C@H]1CN([C@@H](C)CO)C(=O)c2cc(C#CCN(C)C)cnc2O[C@@H]1CN(C)C | 14 | 21 |
| C[C@@H]1CN([C@H](C)CO)C(=O)c2cc(NS(=O)(=O)c3cn(C)cn3)ccc2O[C@@H](C)CCCCO[C@H]1CN(C)S(=O)(=O)c1ccc(Cl)cc1 | 11 | 20 |
| CO[C@@H]1CN(C)C(=O)c2cc(NC(=O)C3CC3)ccc2OC[C@H](C)N(CC2CC2)C[C@H]1C | -3 | 2 |
| C[C@H]1CN([C@@H](C)CO)S(=O)(=O)c2ccc(/C=C/c3ccccc3)cc2O[C@@H]1CN(C)C(=O)C1CC1 | . | ? |
| CO[C@H]1CN(C)C(=O)c2cc(NS(=O)(=O)c3cn(C)cn3)ccc2OC[C@H](C)NC[C@@H]1C | -3 | 16 |
| CN(C)C(=O)[C@@H]1[C@@H](CO)[C@@H]2Cn3c(ccc(C4=CCCC4)c3=O)[C@@H]2N1C(=O)c1ccccc1F | 7 | 13 |
| O=C(C[C@H]1C=C[C@@H](NC(=O)C2CCOCC2)[C@H](CO)O1)NCC1CC1 | 2 | 3 |
| C[C@@H](O)C#Cc1ccc([C@@H]2[C@H](CO)N3CCCCN(C(=O)c4ccc(F)cc4)C[C@@H]23)cc1 | -5 | 19 |
| COC(=O)C[C@H]1C[C@H]2c3cc(NC(=O)Nc4ccc(C(F)(F)F)cc4)ccc3O[C@H]2[C@@H](CO)O1 | -4 | -3 |
| COc1ccc(NC(=O)Nc2ccc3c(c2)CC(=O)N([C@H](C)CO)C[C@H](C)[C@@H](CN(C)C(=O)Nc2ccc4c(c2)OCO4)O3)cc1 | 10 | 16 |
| Cc1cc(C(=O)Nc2cccc3c2O[C@@H](CN(C)C(=O)Nc2cccc4ccccc24)[C@H](C)CN([C@@H](C)CO)C3=O)n(C)n1 | 9 | 15 |
| CO[C@H](CN(C)S(=O)(=O)c1ccc(F)cc1)[C@@H](C)CN([C@H](C)CO)S(=O)(=O)c1cccc(Cl)c1 | -1 | -14 |
| C[C@@H]1CN([C@H](C)CO)S(=O)(=O)c2ccc(-c3cccc(C#N)c3)cc2O[C@@H]1CN(C)C(=O)c1ccc(F)cc1 | -26 | -21 |
| O=C(C[C@H]1C=C[C@H](NC(=O)Nc2ccc(C(F)(F)F)cc2)[C@H](CO)O1)NCc1cccc(F)c1 | -18 | -13 |
| C[C@@H]1CCCCO[C@@H](CN(C)Cc2ccc(Cl)c(Cl)c2)[C@@H](C)CN([C@H](C)CO)C(=O)c2cc(NS(=O)(=O)c3ccccc3)ccc2O1 | -4 | 2 |
| C[C@H]1CN([C@@H](C)CO)C(=O)c2cc(C#CC3(O)CCCC3)cnc2O[C@H]1CN(C)Cc1ccccc1 | 0 | 3 |
| Cc1ccc(S(=O)(=O)N[C@H]2CC[C@@H](CCn3cc(-c4cccnc4)nn3)O[C@@H]2CO)cc1 | -13 | -30 |
| C/C=C/c1cccc(-c2nc(C(=O)NCc3cccc(OC)c3)cc3c2[C@@H](CCO)N([S@](=O)C(C)(C)C)C3)c1 | -3 | -25 |
| Cc1ccc(S(=O)(=O)N(C)C[C@H]2OCCCC[C@@H](C)Oc3ccc(NC(=O)Nc4ccccc4)cc3C(=O)N([C@@H](C)CO)C[C@H]2C)cc1 | 3 | -10 |
| C/C=C/c1ccc2c(c1)O[C@H](CN(C)Cc1cccnc1)[C@@H](C)CN([C@@H](C)CO)S2(=O)=O | -11 | -16 |
| O=C(CCN1CCCCC1)NCC[C@H]1CC[C@H](NC(=O)C2CCCC2)[C@@H](CO)O1 | -8 | 0 |
| C[C@@H]1CN([C@H](C)CO)C(=O)Cc2cc(NC(=O)Nc3cccc4ccccc34)ccc2O[C@H]1CN(C)C(=O)Nc1ccc2c(c1)OCO2 | 13 | 19 |
| O=C(NC[C@@H]1[C@H](c2ccccc2)[C@H](CO)N1C(=O)Cc1cccnc1)C1CC1 | 11 | 11 |
| CO[C@@H](CN(C)C(=O)Nc1ccc(C(F)(F)F)cc1)[C@H](C)CN(Cc1ccccc1Cl)[C@@H](C)CO | -11 | -24 |
| O=C(NC[C@H]1[C@H](c2ccccc2)[C@@H](CO)N1C(=O)Cc1cccnc1)C1CC1 | 4 | 9 |
| CCCNC(=O)[C@@H]1[C@@H](CO)[C@@H]2Cn3c(ccc(-c4cncnc4)c3=O)[C@@H]2N1C(=O)c1ccccc1F | 10 | 12 |
| CCC(=O)N(C)C[C@H]1Oc2ncc(C#CC(C)C)cc2C(=O)N([C@H](C)CO)C[C@@H]1C | 1 | 5 |
| CNC[C@@H]1Oc2cc(Br)ccc2S(=O)(=O)N([C@@H](C)CO)C[C@@H]1C | 2&-2 | 4&-6 |
| CN1CCN(C(=O)C[C@H]2CC[C@@H]3[C@H](COC[C@H](O)CN3Cc3ccc4c(c3)OCO4)O2)CC1 | 5 | 16 |
| COc1ccc(NC(=O)N(C)C[C@@H]2Oc3ccc(NC(=O)Nc4cccc5ccccc45)cc3C(=O)N([C@H](C)CO)C[C@@H]2C)cc1 | 11 | 1 |
| C[C@H]1CN([C@@H](C)CO)C(=O)c2cccc(NS(=O)(=O)c3ccc(Cl)cc3)c2O[C@@H]1CN(C)CC1CC1 | -9 | -7 |
| C[C@@H]1CN([C@@H](C)CO)C(=O)c2cc(NC(=O)c3ccncc3)ccc2O[C@@H]1CN(C)C(=O)Nc1ccc(C(F)(F)F)cc1 | 8 | 7 |
| CCCNC(=O)N(C)C[C@H]1Oc2ncc(C#CC3CCCCC3)cc2C(=O)N([C@@H](C)CO)C[C@@H]1C | -1 | -24 |
| O=C(C1CC1)N1CC(=O)N2[C@H](CO)[C@@H](c3ccc(C#CC4CCCC4)cc3)[C@H]2C1 | -11 | -15 |
| N#Cc1ccc(-c2ccc([C@@H]3[C@@H]4CN(S(=O)(=O)c5ccc(-c6ccccc6)cc5)C[C@H]3N4)cc2)cc1 | . | ? |
| CC(C)NC(=O)Nc1ccc2c(c1)C(=O)N([C@@H](C)CO)C[C@H](C)[C@@H](CN(C)Cc1ccc(C(F)(F)F)cc1)OCCCC[C@H](C)O2 | . | ? |

High-throughput results (PubChem BioAssay)
